From PubChem BioAssay
eIF4H FP inh: inhibitors of RNA binding by human eIF4H; inhibition, % at 35 µM; actives 0.94% (n = 290,000); eIF4H fluorescence polarization binding assay; Q15056; AID 2012;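 active = 50% or more with normal probe brightness, or confirmed in later tests; inconclusive = above 50% with abnormal brightness, or retests that disagree; inactive = below 50% or failed in later tests; about a fifth of its hits are not listed in these tables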;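 note: calls also rest on retests at 20 µM and on dose response follow-up; 0% = protein and probe with vehicle and 100% = probe without protein; strong numbers were not always called active; many hits fall short of the cut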
CSC inhib: cancer stem cell inhibition. cancer stem cell-like cells viability, luminescence. inhibition, % at 7.5 µM. actives 1.1% (n = 300,000);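 active = mean at 75% or more and at least half the replicates too; inconclusive = mean and replicates disagree; tested in HMLE shEcad cells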;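 note: 0% = median of negative and 100% = median of positive control wells; the first replicate is given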
PABP polyA inh: PABP-poly(A) binding inhibition; PABP-poly(A) RNA binding, fluorescence polarization; inhibition, % at 35 µM; actives 1% (n = 290,000);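 active = 50% or more with normal probe brightness, or confirmed in later tests; inconclusive = above 50% with abnormal brightness, or retests that disagree; inactive = below 50% or failed in later tests; about a fifth of its hits are not listed in these tables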;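 note: calls also rest on retests at 20 µM and on dose response follow-up; controls were probe without protein and protein plus probe with vehicle; some compounds called inactive have numbers as strong as hits; many hits fall short of the cut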
Target sequence (P11940 whole entry, looked up): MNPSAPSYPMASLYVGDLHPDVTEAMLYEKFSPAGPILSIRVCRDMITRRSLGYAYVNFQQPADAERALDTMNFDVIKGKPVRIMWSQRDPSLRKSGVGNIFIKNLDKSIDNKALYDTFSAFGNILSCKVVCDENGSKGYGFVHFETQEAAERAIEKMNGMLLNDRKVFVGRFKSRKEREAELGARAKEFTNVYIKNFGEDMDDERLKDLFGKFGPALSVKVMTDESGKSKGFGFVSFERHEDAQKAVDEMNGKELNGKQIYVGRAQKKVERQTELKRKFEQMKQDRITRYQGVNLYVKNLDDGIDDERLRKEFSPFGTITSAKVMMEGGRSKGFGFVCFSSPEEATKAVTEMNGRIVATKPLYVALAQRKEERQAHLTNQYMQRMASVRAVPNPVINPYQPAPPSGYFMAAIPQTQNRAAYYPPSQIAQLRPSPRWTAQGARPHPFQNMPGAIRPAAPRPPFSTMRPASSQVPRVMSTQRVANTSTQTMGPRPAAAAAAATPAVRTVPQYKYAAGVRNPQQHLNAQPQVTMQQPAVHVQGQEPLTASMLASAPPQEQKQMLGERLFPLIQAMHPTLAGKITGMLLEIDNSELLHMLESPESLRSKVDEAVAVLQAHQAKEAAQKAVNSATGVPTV
Yeast UUG start: alters start codon recognition fidelity in yeast | actives 0.13% (n = 350,000) | activity score, % at 18.7 µM | S. cerevisiae UUG-firefly luciferase reporter, luminescence/redox ratio;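 active = replicate mean at a twofold rise or more, about +100% in these data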;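 note: firefly luciferase made from a UUG start codon reports start codon fidelity; reporter light over untreated wells divided by growth signal over untreated wells; some hits fall short of that in this replicate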
MT1-MMP act inh: inhibitors of human MT1-MMP activation; HT1080 RFP-PRO-GFP cells, GFP/RFP ratio fluorescence, overnight; percent of plate control window, DMSO zero; GFP/RFP ratio change, % at 20 µM; actives 0.061% (n = 360,000);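 active = GFP/RFP ratio change of at least 30% with cell ATP level not reduced by more than half and red fluorescence within 50% of control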; note: strong numbers were not always called active
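Assay system: RFP-PRO-GFP reporter HT1080 cells; read-out basis: GFP/RFP fluorescence ratio; benchmarks: DMSO wells and RFP-L50D-GFP cells; doses: 20 µM single dose, 1% DMSO; schedule: overnight cell settling, then overnight compound exposure, 37 °C, 5% CO2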
HIV Env fusion: HIV envelope-mediated fusion inhibition; inhibition, % at 12.3 µM; AID 651610; actives 1.1% (n = 360,000); HeLa-JRFL Env/CEM21 cell fusion, luciferase;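 active = mean replicate inhibition score of at least 50 and every replicate individually at or above 50; inconclusive = only one of the two criteria met; inactive = mean below 50 and not all replicates reaching 50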;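 note: 0% = plate neutral controls and 100% = maraviroc near 300 nM; one replicate is shown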
Rce1 inh: blocks yeast Ras-converting enzyme; yeast membranes, quenched prenylated peptide cleavage fluorescence; calls only; AID 2563; actives 0.27% (n = 290,000);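 active = fall in fluorescence gain of 50% or more versus controls, with final raw signal at or below 3038400; inconclusive = same 50% fall but final raw signal above 3038400; inactive = fall in fluorescence gain under 50%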;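 note: plate controls were neutral control wells for no effect and wells lacking membranes for full effect; tested at 10 µM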
eIF4H FP inh retest: also measured in eIF4H FP inh; calls as there; inhibition, %; compound at 20 µM; confirmation average;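 mean of two retest wells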
PABP polyA inh retest: also measured in PABP polyA inh; calls as there; inhibition, %; compound at 20 µM; confirmation repeats;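 mean of two retest wells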
MT1-MMP act inh RFP: further read-out of MT1-MMP act inh, marked with its call; RFP signal change, %; measured here: RFP expression control read;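 0 = vehicle wells; hits needed this value within 50% of zero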
An asterisk follows results filed as active; i = inactive; ? = inconclusive; . = no result given. This is a subset; rates above refer to the full screens.

SMILES | eIF4H FP inh | CSC inhib | PABP polyA inh | Yeast UUG start | MT1-MMP act inh | MT1-MMP act inh RFP | HIV Env fusion | Rce1 inh | others
Cc1ccccc1C(=O)NC(C)C(c1cccs1)N1CCOCC1 (centres undefined) | -3 | -4 | -14 | -8 | 0 | 3 | -14 | i
Cc1cc(Br)ccc1OCCCCNCCO | 7 | -6 | 11 | -13 | 6 | 0 | 25 | i
COc1ccc(-c2cc(C(F)(F)F)n3nc(C(=O)NCCCN4CCOCC4)cc3n2)cc1 | 4 | -5 | 0 | . | . | . | -6 | i
CCc1cc2c(=O)[nH]c(N3CCOCC3)nc2s1 | -6 | 4 | 1 | -7 | -18 | 1 | . | i
CCCCNS(=O)(=O)c1ccc2nc(-c3cccs3)cc(C(=O)NCC(OC)OC)c2c1 | 3 | 13 | 3 | . | . | . | . | i
COc1ccc(Cl)c(NC(=O)Nc2c(C)n(-c3ccccc3)c(=O)n2C)c1 | 5 | -3 | 0 | -9 | -2 | 1 | . | i
CC(C)(CCl)C(=O)Nc1ccc(C(F)(F)F)cc1 | -14 | -9 | -7 | -4 | -1 | -7 | -6 | i
CSC(=S)N(C)C1CCS(=O)(=O)C1 (centres undefined) | -4 | -7 | -1 | -18 | -8 | -2 | 4 | i
O=C(CN1C(=O)NC2(CCCC2)C1=O)OCc1ccccc1F | . | -1 | . | -4 | -1 | 1 | -6 | .
COc1ccc(C(CNC(=O)C(C)Oc2ccc(Br)cc2)N2CCOCC2)cc1 (centres undefined) | . | -10 | . | 11 | -2 | -4 | 10 | i
CCC(C)N(C(=O)Cn1nnc(-c2ccc(Cl)cc2)n1)C1CCS(=O)(=O)C1 (centres undefined) | . | -4 | . | -25 | 0 | -2 | . | i
O=C(Nc1nccc(-c2cccs2)n1)c1ccccc1Cl | 4 | 2 | 5 | -5 | 6 | 6 | -104 | i

5 entries already listed, sorted by molecular weight, high to low.
SMILES | eIF4H FP inh | CSC inhib | PABP polyA inh | Yeast UUG start | MT1-MMP act inh | MT1-MMP act inh RFP | HIV Env fusion | Rce1 inh | others
CCCCNS(=O)(=O)c1ccc2nc(-c3cccs3)cc(C(=O)NCC(OC)OC)c2c1 | 3 | 13 | 3 | . | . | . | . | i
CCC(C)N(C(=O)Cn1nnc(-c2ccc(Cl)cc2)n1)C1CCS(=O)(=O)C1 (centres undefined) | . | -4 | . | -25 | 0 | -2 | . | i
COc1ccc(Cl)c(NC(=O)Nc2c(C)n(-c3ccccc3)c(=O)n2C)c1 | 5 | -3 | 0 | -9 | -2 | 1 | . | i
Cc1cc(Br)ccc1OCCCCNCCO | 7 | -6 | 11 | -13 | 6 | 0 | 25 | i
CSC(=S)N(C)C1CCS(=O)(=O)C1 (centres undefined) | -4 | -7 | -1 | -18 | -8 | -2 | 4 | i

In the list so far, these contain bromine:
SMILES | eIF4H FP inh | CSC inhib | PABP polyA inh | Yeast UUG start | MT1-MMP act inh | MT1-MMP act inh RFP | HIV Env fusion | Rce1 inh | others
Cc1cc(Br)ccc1OCCCCNCCO | 7 | -6 | 11 | -13 | 6 | 0 | 25 | i
COc1ccc(C(CNC(=O)C(C)Oc2ccc(Br)cc2)N2CCOCC2)cc1 (centres undefined) | . | -10 | . | 11 | -2 | -4 | 10 | i

(further entries)
SMILES | eIF4H FP inh | CSC inhib | PABP polyA inh | Yeast UUG start | MT1-MMP act inh | MT1-MMP act inh RFP | HIV Env fusion | Rce1 inh | others
Cc1cccc(C)c1N(C(=O)c1ccco1)C(C(=O)NC1CCCC1)c1ccncc1 (centres undefined) | -8 | . | 48 | . | 0 | 1 | 8 | i
Cc1cc(C)cc(C(=O)N2CC(=O)Nc3ccccc32)c1 | -5 | 51 | -2 | . | 14 | -1 | . | i
Fc1ccc(NC(=S)NCc2ccc3c(c2)OCO3)cc1 | 4 | -15 | -6 | . | -2 | -2 | 0 | i
O=C(O)CN1CCN(CC(=O)O)CCN(CC(=O)O)CCN(CC(=O)O)CC1 | . | -9 | . | -13 | 2 | 3 | -15 | i
COc1ccc(N2CCN(C(CNC(=O)CC(C)(C)C)c3ccc4c(c3)OCO4)CC2)cc1 (centres undefined) | -3 | 1 | 1 | -1 | -2 | -4 | -2 | i
O=C(CNC(=S)N(Cc1ccc(F)cc1)C1CCCCC1)NC1CC1 | -10 | . | -8 | -27 | 4 | -5 | -13 | i
CCOC(=O)C1CCN(S(=O)(=O)c2ccc(C(=O)OC)cc2)CC1 | 3 | 6 | 2 | -9 | 4 | 4 | . | i
CC(Sc1nc2ccccc2s1)C(=O)NC1CCCc2ccccc21 (centres undefined) | -4 | 8 | -4 | -11 | -5 | -12 | 3 | i
Cc1ccc2nc(SCC(=O)Nc3cc(C)on3)c(C)cc2c1 | 4 | 9 | 15 | . | -2 | 1 | -4 | i
COc1ccc(Br)cc1S(=O)(=O)NCCN1CCOCC1 | 0 | -6 | -6 | . | -6 | 1 | 1 | i
CCCC(C)C(=O)Nc1ccncc1 (centres undefined) | -6 | -5 | -16 | -18 | -2 | -2 | -18 | i
CN(C)CCNc1nc2c(c(=O)[nH]c(=O)n2C)n1CC(O)COc1ccc(Cl)cc1 (centres undefined) | 1 | . | 4 | -25 | 2 | 0 | . | .
CCCCc1nnc(NC(=O)c2ccc(S(=O)(=O)N3CCOCC3)cc2)s1 | . | -3 | . | -19 | 3 | 0 | . | .
CCN(CC)c1ccc(NC(=O)Nc2ccccc2C(F)(F)F)cc1 | 7 | -7 | 2 | -6 | 2 | 5 | . | i
COC(=O)c1c(-c2ccco2)csc1NC(=O)C1CC=CCC1C(=O)O (centres undefined) | 85* | -4 | 68* | -1 | -7 | -2 | . | i | eIF4H FP inh retest=112*;PABP polyA inh retest=90*
COC(=O)CNC(=O)c1ccccc1 | . | -1 | . | -24 | -7 | 0 | . | i
CCn1c(C)c(C2=CCN(S(=O)(=O)c3ccccc3)CC2)c2ccccc21 | ? | 15 | 2 | 7 | 0 | 9 | 9 | i
O=C(NC1CC1)C1CCN(C2CCN(C(=O)/C=C/c3ccc(F)cc3)CC2)CC1 | -6 | -9 | 48 | -5 | 1 | 2 | -5 | i
O=C(NCCO)C(=O)Nc1cc2c3c(c1)CCN3C(=O)CC2 | . | -8 | . | -15 | 0 | 5 | -4 | i
CCC(Cc1ccccc1)NS(=O)(=O)c1ccc2c(c1)NC(=O)C(C)S2 (centres undefined) | -7 | -25 | -1 | 11 | 0 | -15 | 6 | i
CCOC(=O)c1sc(NC(=O)C2CC=CCC2C(=O)O)nc1C (centres undefined) | 25 | -8 | 39 | -6 | -4 | -3 | . | i
COc1ccccc1CNCc1cc(=O)oc2c(C)c(C)ccc12 | -4 | 10 | -2 | -4 | -6 | -3 | 14 | i
CSc1nc2ncc3c(n2n1)CC1c2ccccc2CCN1C3=O (centres undefined) | -1 | -12 | 0 | -8 | 10 | 0 | -55 | i
Cc1nnc(SCC(=O)N/N=C/c2cn(-c3ccccc3)nc2-c2ccccc2)n1-c1ccccc1 | -1 | 48 | -10 | 2 | 0 | -14 | . | i
COc1ccc(Cl)cc1NC(=O)CNc1ccccc1F | 3 | 50 | -6 | 0 | 1 | 2 | 5 | i
O=C(Nc1ccc(N2CCCC2)c(Cl)c1)c1ccc([N+](=O)[O-])o1 | 2 | . | 3 | . | -11 | -26 | -140 | .
Cc1c2c(=O)n(-c3nc4ccccc4s3)nc-2cc(O)n1Cc1ccccc1 | 60* | . | 50* | . | -7 | 3 | . | .
Cc1cccc(-c2onc3ccc(C(=O)/C=C/N(C)C)cc23)c1 | -5 | 14 | -4 | . | -5 | -6 | -1 | i
Cc1nn(-c2ccccc2)c(Cl)c1/C=N/NC(=O)c1ccco1 | 5 | 8 | 20 | -2 | -3 | 3 | -288 | i
O=C(N/N=C/c1cccnc1)c1ccc(NC(=O)c2ccc(F)cc2)cc1 | -10 | -9 | -2 | -10 | 2 | 0 | 12 | i
NC(=S)Cc1nc(-c2ccc(Cl)cc2)cs1 | 6 | -8 | 16 | . | -17 | -10 | -32 | i
Cc1cc(C(=O)N2CCCc3ccccc32)ccc1[N+](=O)[O-] | 5 | -5 | 6 | -30 | 4 | -3 | -55 | i
O=C(c1cccnc1)N1N=C2CCCCCC2C1(O)C(F)(F)F (centres undefined) | 1 | -3 | 3 | . | 0 | 2 | -1 | i
COc1ccc(CSC2=NCCN2)cc1Cl | -5 | -11 | 0 | -10 | 6 | 8 | -41 | i
COCCN(C(=O)/C=C/c1cccc([N+](=O)[O-])c1)c1c(N)n(Cc2ccccc2)c(=O)[nH]c1=O | -2 | -15 | -5 | -6 | -2 | 1 | 10 | .
CCOc1cc2[nH]c(=S)n(Cc3ccc(C(=O)NCCCN(CC)CC)cc3)c(=O)c2cc1OCC | -3 | . | -7 | -12 | 0 | -1 | 12 | i
Cc1cccc(NC(=O)c2cnn(C)c2)c1C | -4 | . | 10 | . | 6 | 5 | -8 | i
CSc1ccc(S(=O)(=O)N(CC(=O)NN=C2CCN(C)CC2)c2ccc(C)cc2)cc1 | 7 | -6 | 0 | -15 | 1 | 3 | -8 | i
O=C(NC1CCCC1)C(c1cccnc1)N(Cc1ccccc1F)C(=O)c1csnn1 (centres undefined) | -5 | -19 | -2 | -22 | -3 | 2 | -1 | i
C=CCNC(=S)N/N=C/c1ccc(OCc2ccccc2Cl)cc1 | -3 | . | -11 | -11 | -2 | 1 | -45 | i
O=C(Nc1nc(-c2cc3ccccc3oc2=O)cs1)c1ccc(Br)o1 | 12 | 15 | -12 | . | 1 | 11 | . | i
COc1ccc(/C=C(\NC(=O)c2ccccc2)C(=O)NCc2ccco2)cc1 | 7 | 3 | 19 | 1 | 4 | 5 | -3 | i
CCCc1nnc(NC(=O)CCC(=O)N2CCN(Cc3ccc(F)cc3)CC2)s1 | -6 | 5 | -5 | -4 | 8 | -2 | 5 | i
Cc1nn(Cc2cccc(C(=O)N3CCCC(C)C3)c2)c(C)c1[N+](=O)[O-] (centres undefined) | -11 | -21 | ? | . | -2 | -13 | 23 | i
COc1cc(SC#N)ccc1N=Cc1c(C)[nH]n(-c2ccc(Cl)cc2)c1=O | -3 | -1 | -3 | . | -3 | -5 | . | i
O=C(CSc1cn(Cc2ccccc2)c2ccccc12)Nc1nccs1 | 4 | 16 | -10 | -19 | 1 | -10 | -228 | i
COCCCn1c(=O)/c(=C\c2ccc(OC(F)F)c(OC)c2)s/c1=C(/C#N)C(=O)NCCOC | ? | 3 | ? | . | -48 | 2 | -2 | .
Nc1ccc(C23CC4CC(CC(CO)(C4)C2)C3)cc1 | -7 | -12 | -14 | -11 | -2 | -2 | 11 | i
